PrP 5UTR inh: suppresses PrP 5' UTR mRNA reporter expression; cell-based PrP 5' UTR mRNA reporter, plate reader; inhibition, % (test concentration not listed); 340,000 compounds, 0.35% hits; AID 488862;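 active = every replicate at 50% or more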;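 also: 0 = median of the neutral control wells; tested in H4 reporter cells; numbers are from one replicate; inactives centre near -14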
BJeLR lethal: BJeLR cell viability loss; inhibition, % (test concentration not listed); BJeLR (HRASV12) viability, CellTiter-Glo ATP luminescence, 48 h; reference of the scale not given here; 300,000 compounds, 0.17% hits;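 active = replicate mean above 50%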;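 also: 50 nL library stock added to about 25 µL; numbers are from one replicate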
* marks the source's active call; other numbers are inactive results; x = no result given. Only part of the results is shown; the hit share may differ from the screen's.

| SMILES | PrP 5UTR inh | BJeLR lethal |
| --- | --- | --- |
| Cc1ccc(-c2nnc(SCC(=O)N/N=C/c3ccccc3C(=O)O)n2-c2ccccc2)cc1 | x | -1.9 |
| O=c1[nH]c(=S)[nH]c2[nH]c(=S)[nH]c12 | x | -3.1 |
| Cc1sc(/N=C/c2ccccc2O)c(C#N)c1C | x | 0.2 |
| COc1ccc(S(=O)(=O)n2ccc(-c3ccc4c(c3)CCC(C)(C)O4)n2)cc1 | x | 4.1 |
| COC(=O)C/C=C/[C@@H](C)[C@@H](/C=N/O[C@@H](C)c1cn([C@H](CO)Cc2ccccc2)nn1)NS(=O)(=O)c1ccc(C)cc1 | x | -0.1 |
| COc1ccc(NC(=O)C(=O)N/N=C\c2ccc(CNC(=O)C(=O)Nc3ccc(C)c(C)c3)o2)c(OC)c1 | x | 27.6 |
| O=C(c1ccc(Cl)cc1)c1cnc(-c2ccccc2)s1 | -81.7 | x |
| COC1=C(N)C(=O)c2nc(-c3nc(C(=O)O)c(C)c(-c4ccc(OC)c(OC)c4O)c3N)ccc2C1=O | 23.4 | x |
| CCN(CC)Cc1c(C(=O)N/N=C/c2ccco2)nnn1-c1nonc1N | -3.8 | x |
| CCOc1ccc(NC(=O)c2ccc(NS(=O)(=O)c3cccc4cccnc34)cc2)cc1 | -11.2 | x |
| COc1ccc(CNc2ccncc2)c(OC)c1OC | -7.0 | x |
| CN(C)c1ccc(/C=N/N2CCN(c3ccccn3)CC2)cc1 | -67.2 | -5.7 |
| S=c1[nH]nc(-c2cc(-c3ccccn3)nc3ccccc23)o1 | -11.6 | 4.9 |
| COc1ccc(Cl)cc1NC(=O)Nc1cn(C)nc1C | 0.3 | 0.2 |
| Oc1c(Br)cc(Br)cc1/C=N/NC(=S)N[C@H]1CC2C=CC1C2 (some centres undefined) | -24.4 | -3.4 |
| Clc1ccc(-c2nc(NCCCN3CCOCC3)c3ccccc3n2)cc1 | -4.9 | -9.4 |
| O=c1ccn(CCCBr)c(=O)[nH]1 | -17.9 | 2.2 |
| Cc1ccc(/C=N/N2CCN(Cc3ccc(C)cc3)CC2)cc1 | 4.8 | 6.9 |
| COc1cc(/C=N/NC(=S)NC2CC3CC2C2C=CCC32)ccc1O (centres undefined) | -45.5 | -11.8 |
| O=C(N/N=C/c1ccccn1)c1sc2ccccc2c1Cl | -11.1 | 3.3 |

Structures shown so far with a COOH group (2):
| SMILES | PrP 5UTR inh | BJeLR lethal |
| --- | --- | --- |
| Cc1ccc(-c2nnc(SCC(=O)N/N=C/c3ccccc3C(=O)O)n2-c2ccccc2)cc1 | x | -1.9 |
| COC1=C(N)C(=O)c2nc(-c3nc(C(=O)O)c(C)c(-c4ccc(OC)c(OC)c4O)c3N)ccc2C1=O | 23.4 | x |

Single records, from the list above. Order of screens: PrP 5UTR inh	BJeLR lethal
`S=c1[nH]nc(-c2cc(-c3ccccn3)nc3ccccc23)o1` is listed as -11.6	4.9
`Clc1ccc(-c2nc(NCCCN3CCOCC3)c3ccccc3n2)cc1` is listed as -4.9	-9.4
`COc1ccc(Cl)cc1NC(=O)Nc1cn(C)nc1C` is listed as 0.3	0.2
`Cc1ccc(-c2nnc(SCC(=O)N/N=C/c3ccccc3C(=O)O)n2-c2ccccc2)cc1` is listed as x	-1.9
`Oc1c(Br)cc(Br)cc1/C=N/NC(=S)N[C@H]1CC2C=CC1C2` (some centres undefined) is listed as -24.4	-3.4

Next section.
| SMILES | PrP 5UTR inh | BJeLR lethal |
| --- | --- | --- |
| CSc1cccc(NC(=S)N2CCCN(Cc3ccccc3F)C2)c1 | -9.9 | 7.3 |
| CC1(NC(=S)NCCCCCCNC(=S)NC2(C)CCS(=O)(=O)C2)CCS(=O)(=O)C1 (centres undefined) | -12.3 | 2.3 |
| CC(Sc1nnc(CNc2cccc3ccccc23)n1-c1ccccc1)C(=O)N/N=C/c1ccco1 (centres undefined) | -21.1 | 0.2 |
| Cc1ccc(/C=N/NC(=O)Cn2nccc2C)o1 | -10.9 | 0.6 |
| COc1ccc(OC)c(S(=O)(=O)N/N=C\c2cn(CC(N)=O)c3ccccc23)c1 | -79.2 | 2.5 |
| Oc1c(Br)cc(C=Nc2ccc3nc(-c4ccccc4)[nH]c3c2)c(O)c1Br | -61.3 | 2.4 |
| Cc1c(C(=O)N(Cc2ccccc2)Cc2cccs2)cnn1-c1ccc(Cl)cc1 | -38.3 | -4.0 |
| COc1ccc(/C=N/NC(=O)c2cc(C)on2)c2ccccc12 | -15.3 | 4.1 |
| O=C1/C(=C\c2ccc(O)cc2)SC(=S)N1Cc1ccccc1 | -21.1 | -7.6 |
| COc1ccc(/C=N/Nc2nc(=O)[nH]nc2C)cc1OC | -3.0 | 6.4 |
| COc1cccc(/C=N/N2C(=O)NC3(CCCCC3)C2=O)c1O | -19.2 | 2.4 |
| Cc1ccccc1CO/N=C/c1[nH]ncc1Br | -16.3 | 0.4 |
| Cc1onc(-c2c(F)cccc2Cl)c1C(=O)O/N=C(\N)c1ccc([N+](=O)[O-])o1 | -28.3 | 0.4 |
| COc1ccc(CCn2c(NN=C3CCCCC3)nc3c2c(=O)[nH]c(=O)n3C)cc1 | -6.9 | -4.0 |
| O=C1NC(=O)N(Cc2ccc(F)cc2)C(=O)/C1=C\c1ccoc1 | 5.3 | 6.1 |
| CC(=O)Nc1ccc(/C(C)=N/NC(=O)c2ccc(COc3ccccc3Cl)o2)cc1 | -19.3 | -4.2 |
| N/C(Cc1nc(-c2ccc(F)cc2)cs1)=N\O | -20.8 | -2.5 |
| CC1(C)c2ccccc2N2CCC(=O)NC21/C=C/c1ccco1 (centres undefined) | -10.5 | 4.8 |
| COc1cccc(/C=N/NC(=O)C(C)Cn2cnc3ccccc32)c1 (centres undefined) | -20.9 | 7.6 |
| O=c1c(/C=N/O)coc2ccc(Cl)cc12 | -14.2 | -3.2 |
| N/C(=N\OC(=O)c1cccs1)C1(c2ccc(Cl)cc2Cl)CC1 | 5.7 | -5.6 |
| COc1ccc(C)cc1Nc1n[n+](C)c(-c2c3ccccc3cc3ccccc23)s1 | -60.1 | -4.4 |
| CC(C)(/C=N/O)/[N+]([O-])=C/c1ccccc1 | -12.2 | -12.0 |
| COCCn1c(=S)[nH]c2cc(C(=O)N3CCCC(C)C3)ccc2c1=O (centres undefined) | -15.1 | -13.9 |
| Cc1ccc(C)c(S(=O)(=O)N/N=C2/CCCc3ccccc32)c1 | -7.4 | 4.2 |
| CS(=O)(=O)N1CCC(C(=O)Nc2cccc(Cl)c2Cl)CC1 | -20.4 | 10.7 |
| COc1cccc(-c2c(C(=O)N/N=C/c3sccc3C)nnn2-c2nonc2N)c1 | -18.6 | -5.3 |
| CCN(CC)CCOC(=O)c1ccc(N/C=C(/C#N)c2nc(-c3ccc4c(c3)OCO4)cs2)cc1 | -9.1 | -8.3 |
| Oc1c(Br)cc(Br)c(/C=N/n2c(-c3ccccc3)n[nH]c2=S)c1Br | -22.1 | 1.0 |
| S=c1[nH]nc(-c2ccco2)n1/N=C/C(Cl)=C/c1ccccc1 | -90.9 | 1.8 |
| CCCOc1cccc(C(=O)N/N=C/c2ccoc2)c1 | -20.6 | -10.8 |
| Cc1cc(N/N=C/c2cccc(Cl)c2)nc(-n2nc(C)cc2C)n1 | 2.3 | 5.1 |
| Cc1occc1C(=O)N/N=C/C(Br)=C\c1ccccc1 | -62.1 | 12.0 |
| O=C(N/N=C/c1ccccc1O)c1cccc2ccccc12 | 15.6 | 3.9 |
| CC1=NNC(=O)C1CC(=O)N/N=C/C=C/c1ccccc1 (centres undefined) | 1.1 | 2.1 |
| CC(/C=N/n1c(-c2ccncc2)n[nH]c1=S)=C\c1ccco1 | -7.9 | -2.5 |
| NS(=O)(=O)c1ccc(NC(=O)CN2CCc3ccccc32)cc1 | -13.5 | 4.9 |
| Cc1ccc(/C=N\NC(=O)c2ccc3c(c2)OCO3)o1 | -64.2 | -8.2 |
| COc1ccc(Br)cc1/C=N/NC(=O)CN1CCN(Cc2ccccc2)CC1 | -5.9 | -1.4 |
| COc1ccc(CN2C[C@H](Cc3ccccc3)[C@@H](CC(=O)Nc3ccccc3)C2=O)cc1 | -15.2 | -4.8 |

Among those listed so far, 11 have an NH in an aromatic ring.
| SMILES | PrP 5UTR inh | BJeLR lethal |
| --- | --- | --- |
| O=c1[nH]c(=S)[nH]c2[nH]c(=S)[nH]c12 | x | -3.1 |
| S=c1[nH]nc(-c2cc(-c3ccccn3)nc3ccccc23)o1 | -11.6 | 4.9 |
| O=c1ccn(CCCBr)c(=O)[nH]1 | -17.9 | 2.2 |
| Oc1c(Br)cc(C=Nc2ccc3nc(-c4ccccc4)[nH]c3c2)c(O)c1Br | -61.3 | 2.4 |
| COc1ccc(/C=N/Nc2nc(=O)[nH]nc2C)cc1OC | -3.0 | 6.4 |
| Cc1ccccc1CO/N=C/c1[nH]ncc1Br | -16.3 | 0.4 |
| COc1ccc(CCn2c(NN=C3CCCCC3)nc3c2c(=O)[nH]c(=O)n3C)cc1 | -6.9 | -4.0 |
| COCCn1c(=S)[nH]c2cc(C(=O)N3CCCC(C)C3)ccc2c1=O (centres undefined) | -15.1 | -13.9 |
| Oc1c(Br)cc(Br)c(/C=N/n2c(-c3ccccc3)n[nH]c2=S)c1Br | -22.1 | 1.0 |
| S=c1[nH]nc(-c2ccco2)n1/N=C/C(Cl)=C/c1ccccc1 | -90.9 | 1.8 |
| CC(/C=N/n1c(-c2ccncc2)n[nH]c1=S)=C\c1ccco1 | -7.9 | -2.5 |

(cont.)
| SMILES | PrP 5UTR inh | BJeLR lethal |
| --- | --- | --- |
| Cc1nc(CC(=O)N/N=C/c2ccc(OCC(=O)O)cc2)cs1 | 4.4 | 2.4 |
| C/C(=N/NC(=O)CNC(=O)c1cccnc1)c1ccco1 | -2.6 | 7.7 |
| CO/N=C1\CCn2c1c(C)c1ccccc12 | -3.2 | 7.5 |
| CCCCCOCC1CC(C/C(C)=N/Nc2nc(-c3ccccc3)cs2)C(=O)O1 (centres undefined) | -16.2 | -7.7 |
| COc1ccc(CC(=O)NCC(=O)N/N=C/c2cc(Br)ccc2OC)cc1 | -11.3 | 4.7 |
| Cc1ccc(/C=N/NC(=O)CN2CCN(Cc3ccccc3)CC2)s1 | -19.6 | 2.2 |
| O=C(Cn1c(=O)oc2ccccc21)Nc1cccc(Cl)c1 | -6.0 | -8.0 |
| O=C(N/N=C/C=C/c1ccccc1)c1cc(C2CC2)[nH]n1 | -51.9 | 6.6 |
| Cc1cc(C(=O)N/N=C/C=C/c2ccccc2)n[nH]1 | -35.6 | 17.5 |
| O=C(Cn1nc2ccccc2n1)N/N=C/c1ccc(F)cc1 | -26.7 | -3.0 |
| COc1ccccc1N1CCN(/N=C/c2cccc(Cl)c2)CC1 | -83.2 | -0.3 |
| CC(C)CCNC(=O)[C@H](CC(C)C)NC(=O)[C@H]1O[C@@H]1C(=O)O | -8.2 | -3.6 |
| COC(=O)C1=C(C)N(Cc2ccccc2)C(=NCc2cc(OC)c(OC)c(OC)c2)N[C@H]1c1ccccc1 | -15.8 | 0.1 |
| COC(=O)/C(C#N)=C(/Nc1ccc(F)c(Cl)c1)C(F)(F)F | -7.7 | -3.2 |
| COc1ccc(/C=N/NC(=O)c2ccco2)cc1COc1ccc(F)cc1 | -4.5 | 4.7 |
| Cc1ccc(/C=N/NC(=O)c2nnn(-c3nonc3N)c2C(C)C)o1 | -33.8 | 5.9 |
| O=C(CN1CCCCC1)N/N=C/c1ccc(Cl)cc1 | -18.6 | -8.6 |
| N#CC1=C(N)Oc2cc(N)ccc2C1c1ccc(F)cc1F (centres undefined) | -10.7 | 11.4 |
| O/N=C1\CCc2cc(Cl)ccc21 | -11.8 | 4.1 |
| CCC/C(=N/NC(=O)c1csc(C)c1C)c1ccc(Cl)s1 | 4.1 | 18.5 |
| Oc1ccc(-c2cnc(-c3ccc(O)cc3)nc2)cc1 | -63.6 | -9.2 |
| Cc1ccc(/C=N/NC(=O)c2ccc3ccccc3c2)s1 | -30.0 | 40.0 |
| CCCCOc1ccccc1C(=O)NNC(=S)NC(=O)c1ccccc1[N+](=O)[O-] | 1.1 | 5.9 |
| Cc1ccc(NCC(=O)N/N=C/c2cccn2C)cc1 | -15.1 | -3.0 |
| COC(=O)C1=C(C)N(Cc2ccco2)C(=O)N[C@@H]1c1cccc(C(F)(F)F)c1 | -29.8 | -7.2 |
| CCN(CC)c1ccc(/C=N/NC(=O)c2ccc3nc[nH]c3c2)cc1 | -11.0 | -5.8 |
| COc1cc2c(cc1OC)C(c1cccc(F)c1)CC(=O)N2 (centres undefined) | 9.9 | -3.0 |
| COc1ccc(CCNC(=O)c2cc3c(=O)n4ccccc4nc3n(C3CCCCC3)c2=N)cc1 | -18.0 | -11.5 |
| C=CCN=C1S/C(=C\c2ccc(Cl)cc2)C(=O)N1CC=C | -88.5 | -5.0 |
| CCN(CC)C(=O)Cn1c(=O)n(Cc2ccc(F)cc2)c(=O)c2sccc21 | -23.3 | -3.0 |
| O=C(N/N=C/c1ccc([N+](=O)[O-])o1)C(O)c1ccccc1 (centres undefined) | -22.0 | 0.9 |
| CC/C(C)=N/Nc1nc(-c2cc3cccc(OC)c3oc2=O)cs1 | -96.5 | 2.2 |
| N/C(=N\c1nc2ccccc2o1)NC(=O)c1ccc([N+](=O)[O-])cc1 | 1.1 | -6.1 |
| c1ccc(CCNc2nc(-c3ccccn3)nc3ccccc23)cc1 | -11.8 | 26.9 |
| Cc1ccc(S(=O)(=O)N/N=C/c2ccccc2F)cc1[N+](=O)[O-] | -16.4 | 4.3 |
| COc1ccc(/C=N/NC(=S)N[C@H]2CC3CCC2C3)cc1 (some centres undefined) | -20.3 | -3.4 |
